VDR inhibitor: inhibitors of human vitamin D receptor; P11473; Potency, µM, for inactives: max response, negative = inhibition, actives largely listed as inhibitors; AID 504847; 0.93% of 400,000 active; VDR-SRC2-3 peptide fluorescence polarization, 2 h; active = well fitted inhibition curve with a large enough effect; inconclusive = small, poorly fitted or top-dose-only effect, or another doubt; inactive = no such curve, though single readings can be large or run the other way; note: series mostly up to about 120 µM
Target sequence (P11473 whole entry, looked up): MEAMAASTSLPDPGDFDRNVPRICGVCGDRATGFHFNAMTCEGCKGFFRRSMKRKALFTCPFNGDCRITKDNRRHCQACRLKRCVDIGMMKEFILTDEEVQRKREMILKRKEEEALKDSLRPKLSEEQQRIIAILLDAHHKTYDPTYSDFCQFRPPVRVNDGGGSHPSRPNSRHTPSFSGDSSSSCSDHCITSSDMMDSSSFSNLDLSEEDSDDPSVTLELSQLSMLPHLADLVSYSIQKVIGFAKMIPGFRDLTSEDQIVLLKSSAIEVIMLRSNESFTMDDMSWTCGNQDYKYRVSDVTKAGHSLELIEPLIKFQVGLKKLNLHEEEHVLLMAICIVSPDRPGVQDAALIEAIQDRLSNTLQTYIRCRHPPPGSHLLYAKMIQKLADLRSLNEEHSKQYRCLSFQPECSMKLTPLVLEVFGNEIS
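Signal is fluorescence polarization, reporting how far test compounds block the interaction of VDR with the SRC2-3 coregulator peptide after a 2 h room-temperature incubation.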
An asterisk follows results filed as active; ? = inconclusive; & = joins results of further samples. % is set by controls: 0 for no effect and ±100 for the full control effect; potency is the fitted concentration of half-maximal effect. Not all compounds are listed (hit frequency here may not be typical).

compound | VDR inhibitor
Cc1sc(NC(=O)C2c3ccccc3Oc3ccccc32)c(C(=O)OC(C)C)c1C | -12%
Cc1ccc(OC(=O)c2ccc(C)c(C)c2)cn1 | -9%
O=C(NCCCn1ccnc1)/C(=C/c1ccc(F)cc1)NC(=O)c1ccccc1 | 15%
CCOC(=O)C1CCN(Cc2ccc(N(C)C)cc2)CC1 | 6%
COc1ccc(NC(=O)CC2NCCNC2=O)c(OC)c1 (stereo not drawn) | -2%
O=c1oc2c(CN3CCOCC3)c(O)ccc2c2ccccc12 | 9%
COc1ccccc1OC(C)C(=O)Nc1ccccc1C(=O)NCC1CCCO1 (stereo not drawn) | -8%
Cc1ccc(-n2cc(CNCCc3ncc(C)[nH]3)c(-c3ccc(F)cc3)n2)cc1 | -1%
Cc1ccc(CN2CCSc3ccc(C(=O)NCc4ccc(OC(C)C)cc4)cc32)cc1 | 5%
O=C(O)c1c2c(nc3ccc(S(=O)(=O)N4CCC(C(=O)NC5CCCC5)CC4)cc13)CCCCC2 | 2%
OC(COc1ccc(Cl)cc1)CN1CCC(Cc2ccccc2)CC1 (stereo not drawn) | 21%
S=C(NCCCN1CCOCC1)NC1CCCC1 | 19%
Clc1cccc(-n2ncc3c(N4CCC(Cc5ccccc5)CC4)ncnc32)c1 | 7%
CCN(CCNC(=O)C1CCCN(S(=O)(=O)c2cnc[nH]2)C1)c1ccccc1 (stereo not drawn) | 6%
COc1ccc(-c2cc(C(=O)Oc3ccc(C)c(C)c3)c3ccccc3n2)cc1 | -7%
Fc1ccc(Nc2nc(N3CCOCC3)nc(N3CCOCC3)n2)cc1Cl | -12%
COc1ccc(S(=O)(=O)N2CCN(c3ccccc3OC)CC2)cc1 | -1%&9%
Cc1nn(-c2ccccc2)c(C)c1/C=N/NC(=O)c1cc(-c2ccc(Br)s2)[nH]n1 | 4%
CCn1c(SCC(=O)N2CCCC(C)C2)nc2c1c(=O)n(C)c(=O)n2C (stereo not drawn) | -1%
C(/CCc1ccccc1)=N\n1cnnc1 | 6%
CC[C@@H]1/C=C(\C)C[C@H](C)C[C@H](OC)[C@H]2O[C@@](O)(C(=O)C(=O)N3CCCC[C@H]3C(=O)O[C@H](/C(C)=C/[C@@H]3CC[C@@H](O)[C@H](OC)C3)[C@H](C)[C@@H](O)CC1=O)[C@H](C)C[C@@H]2OC | -17%&-18%
O=C(c1ccc(F)cc1)n1nc(-c2cccnc2)nc1NCc1ccc(F)cc1 | 7%
NC(=O)c1ccc(NCc2ccco2)c([N+](=O)[O-])c1 | 11%
CC1CCCN(C(=O)c2cc(F)c(F)cc2Cl)C1 (stereo not drawn) | 11%
O=S(=O)(c1ccc(Cl)cc1)N1CCC2(CC1)CO2 | -7%
O=C(CN(Cc1ccccc1)C(=O)c1cccc([N+](=O)[O-])c1)Nc1c(Cl)cc(Cl)cc1Cl | 8%
CCOC(=O)Oc1ccc2oc(=O)cc(C)c2c1 | -14%
O=C(C[n+]1ccccc1)N/N=C/c1cc(Br)cc(Br)c1O | -26%
Cc1cc(C)nc(-n2nc(C)c3c(C(F)(F)F)cc(=O)[nH]c32)n1 | -4%
COc1ccc(CCN2CC3=C(C2=O)C(c2ccccc2)NC(=O)N3C)cc1OC (stereo not drawn) | -4%
O=C(O)C(Cc1c[nH]c2ccccc12)N1CCS(=O)(=O)CC1 (stereo not drawn) | 4%
O=C(Cn1ncc2c3ccccc3n(Cc3ccccc3F)c2c1=O)NCC1CCCO1 (stereo not drawn) | -1%
COC(=O)c1ccc(NC(=O)COc2coc(CN3CCc4ccccc43)cc2=O)cc1 | 0%
CN(CC(=O)Nc1cccc(F)c1)C(=O)c1ccc(N2CCCCC2)c([N+](=O)[O-])c1 | 10%
CCN(C(=O)COC(=O)C1=COCCO1)c1ccccc1 | -9%
Cc1ccc(C2=NNC(=O)C(c3c[nH]c4ccccc34)C2)cc1 (stereo not drawn) | -11%
CCCCCC1CC(CC(=O)Nc2nncs2)C(=O)O1 (stereo not drawn) | -2%
CCOC(=O)c1cccc(-c2c(-c3ccccc3)ncc3cc(OC)c(OC)cc23)c1 | 19%
Cc1ccc(NC(=O)COc2ccccc2)cc1Cl | 17%
COCC(=O)N1CCC2(CCCN(c3ccccc3)C2)CC1 | ?
CCCn1c(SCC(=O)Nc2cccc(S(=O)(=O)N3CCCC3)c2)n[nH]c1=O | -3%
Cc1ccc(-c2nc(COC(=O)c3c(C)noc3C)cs2)cc1 | -7%
S=c1[nH]nc(C2CCCCC2)n1/N=C/c1ccc(Br)s1 | -11%
Nc1nnc(SCC(=O)NC2CCCCC2)n1-c1ccccc1 | -14%
CC1CCCC(NC(=O)COC(=O)c2sc3ccccc3c2Cl)C1C (stereo not drawn) | -4%
CSc1nc(NCCOC(C)=O)c(C#N)c(-c2ccc(C(C)(C)C)cc2)n1 | 5%
C/C(=N\NC(=O)c1c(Cl)cnn1C)c1cccc(NC(=O)c2ccc(C)cc2)c1 | 7%
Cc1cc(OC(=O)c2ccc(Cl)cc2Cl)c([N+](=O)[O-])c(=O)[nH]1 | -25%
Cc1ccc(S(=O)(=O)NCCSc2ncccn2)cc1 | 0%
Cc1ccc(S(=O)(=O)Nc2ccnc3ccccc23)cc1 | ?
CCOc1ccc(-n2c(C)cc(/C=C3/C(=N)N4C(=NC3=O)SN=C4S(C)(=O)=O)c2C)cc1 | ?
O=C(NCc1ccco1)C1(c2ccc(Br)cc2)CCCC1 | -10%
CCOC(=O)Nc1cc(NC(=O)OCC)ncn1 | 1%
COc1ccc(Cl)cc1S(=O)(=O)N1CCN=C1Cc1ccccc1 | -2%
CSc1nc(NS(=O)(=O)c2cc(Br)ccc2Br)cc(=O)[nH]1 | -5%
COc1ccccc1N1CCN(C(=O)c2nc(-c3ccc(C)cc3)n3c2CCCCC3)CC1 | 0%
O=C(CCNC(=O)c1ccc([N+](=O)[O-])cc1)Nc1ccc(Cl)c(S(=O)(=O)N2CCOCC2)c1 | -9%
Cc1ccc(C2=NS(=O)(=O)N(C)C(C(=O)Nc3cc(C)n(CC(=O)N4CCCCC4)n3)=C2)cc1 | -8%
C(CCCN1CCCCC1)CCN1CCCCC1 | 5%
CCC(=O)Oc1cc(C(C)(C)C)cc2cc(-c3nc(-c4ccc(OC)cc4OC)no3)c(=O)oc12 | 18%

Later entries:
SMILES | VDR inhibitor
O=C(C1=C(O)C(=O)N(CCN2CCOCC2)C1c1cccc([N+](=O)[O-])c1)c1cccs1 (stereo not drawn) | -14%
CCC1CCCCN1CCCNC(=O)CNC(=O)c1nn(-c2ccc(OC)c(Cl)c2)c(=O)c2ccccc12 (stereo not drawn) | 4%
Cc1nnc(NC(=O)c2ccc(N3CCCC3=O)cc2)s1 | 23%
CN1CCN(C(=O)c2ccc(-n3cccn3)nc2)CC1 | 11%
Cc1ccc(-c2cc(-c3coc4ccccc4c3=O)c3c(n2)-c2cc(Cl)ccc2OC3)cc1 | 2%
COC(=O)COc1ccc(C2NC(=O)NC(C)=C2C(=O)NCc2ccccc2)cc1OC (stereo not drawn) | 9%
C=CCNC(=O)C1CC(=O)N(c2ccc(OCC(=O)N3CCCC3)cc2)C1 (stereo not drawn) | 1%
CCCCN(CC)CCNC(=O)Cn1cnc2sc(C)c(S(=O)(=O)N3CCOCC3)c2c1=O | 5%
CCOc1cc2[nH]c(=S)n(Cc3ccc(C(=O)O)cc3)c(=O)c2cc1OCC | -2%
COc1ccc(/C=N/NC(=O)c2cc(OC)c(OC)c(OC)c2)cc1CN1CCc2cc(OC)c(OC)cc2C1C (stereo not drawn) | 16%
COC1(C(F)(F)F)NC(=O)N(c2ccc(F)cc2)C1=O (stereo not drawn) | 13%
CCOCCCNC(=O)c1cc2c(-c3ccc(OC)c(OC)c3)nn(C)c2s1 | -1%
Cc1ccccc1NC(=O)Cn1nnc2ccccc21 | -2%
CC(CN1CCCCC1)OC(=O)COc1ccc(Br)cc1 (stereo not drawn) | -7%
CCOC(=O)c1c(C)[nH]c(C(=O)COC(=O)c2[nH]c(C)c(C(C)=O)c2C)c1C | 2%
O=C(CCC1CCCN(Cc2ccc3c(c2)CCO3)C1)NCc1ccc(F)c(F)c1 (stereo not drawn) | -10%
CCc1nn2c(=O)cc(COC(=O)c3ccc(SC)cc3OC)nc2s1 | -24%
O=C(CNC(=O)c1cccc(Cl)c1)NCC(c1cccs1)N1CCOCC1 (stereo not drawn) | -3%
COC(=O)c1ccc(CSc2ccc3nnc(-c4ccccc4)n3n2)o1 | -13%
O=C(c1ccc(OC2CCN(Cc3ccccn3)CC2)cc1)N1CCCCCC1 | -3%
CC1(C)Cc2c(c(N3CCOCC3)nc3sc(C(=O)Nc4ccccc4)c(N)c23)CO1 | 2%
O=S(=O)(Nc1ccc(N=Nc2ccccc2)cc1)c1ccccc1 | -17%
O=C1CC(C(=O)Nc2ccc(Cl)cc2)n2ncnc2N1 (stereo not drawn) | -3%
CCOC(=O)c1c(S(=O)(=O)N2CCCC(C(=O)NCc3ccccc3Cl)C2)c(C)n(C)c1C (stereo not drawn) | 19%
O=C(Nc1ccc(N2CCOCC2)cc1)c1cccc(S(=O)(=O)N2CCCCCC2)c1 | -11%
COc1ccc(C(=O)N(Cc2nc(-c3ccc(C)cc3)no2)C(C)C)cc1OC | -16%
Cc1ccc(/C=C/C(=O)Nc2sc(C)c(C)c2C(=O)OC(C)C)o1 | -20%
COc1ccc(NS(=O)(=O)c2cccc(C(=O)NCC(c3ccco3)N3CCCCC3)c2)cc1 (stereo not drawn) | 4%
COc1cccc(N(CC(=O)NC2CCCCC2)C(=O)CCC(=O)Nc2nccs2)c1 | -18%
COc1ccc(N(CC(=O)Nc2ccc3c(c2)OCO3)S(=O)(=O)c2ccccc2)cc1OC | -2%
COC(=O)c1sc2ccccc2c1-n1cccc1C(=O)C(=O)Nc1ccc(C)cc1 | -3%
Cc1cccc(OCC(=O)Nc2cc(S(=O)(=O)N3CCCCC3)ccc2N2CCN(C)CC2)c1 | 7%
CN(C)CCNC(=O)c1ccc2c(c1)NC(=O)c1ccccc1S2 | -20%
Cn1c(CN2CCCC2)nc2cc(NC(=O)c3ccc(Cl)cc3)ccc21 | 7%
COc1cccc(/C=N/Nc2ncc(C)c(=O)[nH]2)c1OC | 11%
O=C(Nc1ccc(F)cc1F)c1c(C(F)(F)F)ccnc1Oc1ccccc1 | -9%
CN1C(=S)SC(C)(C)C1N(O)C(=O)Nc1ccc(Cl)cc1 (stereo not drawn) | -5%
CCCn1c(CCC(=O)O)ccc1-c1ccccc1 | ?
O=C(NCCCc1ccccc1)c1cccs1 | -12%
O=C(NCc1cccs1)NC1CCCCC1 | -9%

2 neighbouring entries out of the list so far:
SMILES | VDR inhibitor
O=C(NCCCc1ccccc1)c1cccs1 | -12%
O=C(NCc1cccs1)NC1CCCCC1 | -9%

2 entries from above, reformatted.
CCCn1c(CCC(=O)O)ccc1-c1ccccc1
  VDR inhibitor = ?

COC(=O)c1sc2ccccc2c1-n1cccc1C(=O)C(=O)Nc1ccc(C)cc1
  VDR inhibitor = -3%

(further entries)
SMILES | VDR inhibitor
CCOCCCNC(=O)Cn1ncc2c(=O)oc3ccccc3c21 | 8%
N#Cc1ncc(Cc2ccccc2)nc1C#N | 79µM*
COc1ccc(CCNC(=O)CCCn2c(=O)c3ccccc3n(Cc3ccc(C)cc3)c2=O)cc1OC | -10%
CCCCCNc1nc2c(-c3ccccc3)nnn2c2ccccc12 | -15%
CC(C)CCNC(=O)COC(=O)c1cc(Br)c(Br)s1 | 3%
Cc1cccc(C)c1NC(=O)C1C2C=CC(C2)C1C(=O)NCc1ccccn1 (stereo not drawn) | 6%
Cc1cc(C)cc(N(CCC#N)C(=O)COC(=O)C2CCN(c3ccc(C(F)(F)F)cn3)CC2)c1 | 6%
COc1ccc(Nc2nc(C)c(-c3ccccc3)s2)cc1 | 12%
O=C(c1cccn(Cc2cccc(Cl)c2)c1=O)N1CCOCC1 | 13%
CN(C)C(=S)NC1CCS(=O)(=O)C1 (stereo not drawn) | 11%
O=c1c2cn(Cc3ccc(F)cc3)c3ccccc3c-2nn1Cc1ccc(F)cc1 | -11%
CCCCN1CC(COCc2ccccc2)Oc2cccc(Oc3ccc(F)cc3)c2S1(=O)=O (stereo not drawn) | 1%
COc1ccc(-n2nnnc2SCC(=O)Nc2c(C)n[nH]c2C)cc1 | -4%
Cc1cccc(Nc2nnc(SCC(=O)Nc3cccc(S(=O)(=O)N4CCCCC4)c3)s2)c1 | 8%
COc1ccc(OCC(=O)Nc2cc(S(=O)(=O)N3CCCC3)ccc2OCC(F)(F)F)cc1 | ?
OC1=C(O)c2nc3cc(C(F)(F)F)ccc3nc21 | -7%
O=C(c1cccc(C(F)(F)F)c1)C1CCCN(Cc2cccn2-c2ccccn2)C1 (stereo not drawn) | 15%
O=C(NCc1cccs1)c1ccc(CS(=O)Cc2ccccc2Cl)o1 (stereo not drawn) | 0%
COc1ccc(OC)c(NC(=O)CSc2nnc(Cc3cccn3C)n2-c2ccc(F)cc2)c1 | -11%

Looked up by structure from the entries so far, three records:
SMILES | VDR inhibitor
CCOCCCNC(=O)Cn1ncc2c(=O)oc3ccccc3c21 | 8%
COc1ccc(CCNC(=O)CCCn2c(=O)c3ccccc3n(Cc3ccc(C)cc3)c2=O)cc1OC | -10%
N#Cc1ncc(Cc2ccccc2)nc1C#N | 79µM*

A draw from above in order of number of heavy atoms, smallest number first.
SMILES | VDR inhibitor
N#Cc1ncc(Cc2ccccc2)nc1C#N | 79µM*
COc1ccc(-n2nnnc2SCC(=O)Nc2c(C)n[nH]c2C)cc1 | -4%
Cc1cc(C)cc(N(CCC#N)C(=O)COC(=O)C2CCN(c3ccc(C(F)(F)F)cn3)CC2)c1 | 6%

Screening results (PubChem BioAssay)
